PMP22 txn: modulates PMP22 transcription in S16 Schwann cells; S16 Pmp22-F2sN Schwann cells (luciferase reporters placed in the Pmp22 gene), FLuc/NLuc coincidence luminescence, 24 h; Potency, µM (titrated, usually from 57.5 µM), for inactives: at the top dose activity change, negative = inhibition, actives largely listed as inhibitors; 2% of 43,000 active; active = clear falling dose curves in both reporters; inconclusive = both reporters move, but less clearly or upward; inactive = either reporter flat; the % is the NLuc reporter signal; further: on the % scale 0 is the no-effect control and ±100 the full control effect; some results filed as inactive show a strong effect at the top dose
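Luminescent read-out of sequential FLuc and NLuc signals from a reporter embedded in the Pmp22 3' UTR of S16 Schwann cells, taken after 24 h compound exposure at 37C; compounds reducing both signals score as inhibitors of expression.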
HTT promoter inh: inhibitors of huntingtin promoter activity; HEK293 HTT promoter firefly luciferase reporter (activity 0% = vehicle and -100% = no light), 24 h; Potency, µM (titrated, usually from 57.5 µM), without a hit: at the top dose activity change, negative = inhibition, most hits filed as inhibitors; 0.93% of 48,000 active; AID 1508623; active means well fitted inhibition curve with a large enough effect; inconclusive means small, poorly fitted or top-dose-only effect; inactive means no such curve, though single readings can be large or run the other way; further: nearly all actives have a fitted effect of over 50% in size
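HEK293 cells carrying firefly luciferase reporters were seeded at 2,500 per well in Opti-MEM and cultured for 24 h. They were then treated with compounds at up to 57.5 uM final for 24 h at 37 degrees C before Dual-Glo luminescence readout.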
Starred values were filed as active, the others as inactive; ? = inconclusive; nt = not tested or not shown; [ ] = remark or other dose. Potency means the concentration at half of the fitted maximal effect.

SMILES	PMP22 txn	HTT promoter inh
Cc1cc(NC(=O)c2ccccc2F)ccc1-c1nc2ccccc2s1	-3%	49%[activator]
O=S(=O)(c1ccc(Cl)cc1)c1nc(-c2ccccc2Br)oc1NCc1ccccc1	4%	-27%[11.5 µM]
CC(CNC(=O)c1cc2cc(S(=O)(=O)N3CCCCC3)ccc2n1C)c1ccccc1 (stereo not given)	?	?
Cc1ccc(CNC(=O)c2cccn2-c2nnc(N3CCCC3)s2)cc1	-3%	-19%
COc1cccc(N2CCN(C(=O)CCSCc3ccccc3F)CC2)c1	-5%	-25%
CCOc1ccc(CNC(=O)CSc2nnc(C)c3c(C)n(-c4ccccc4)nc23)cc1	-23%	-5%
Cc1cc(Br)ccc1NC(=O)CCNS(=O)(=O)c1cccc2nonc12	-12%	-10%
O=S1(=O)c2ccccc2N(Cc2cccc(C(F)(F)F)c2)c2ccccc21	?	?
CCOC(=O)C(O)c1ccccc1 (stereo not given)	nt	3%
CCCC(=O)OCc1cnc(C)c2oc(=O)c(C(=O)Nc3ccccc3)cc12	-29%	-4%
COc1cccc(/C=C/c2nc(C#N)c(NCCc3ccc(OC)c(OC)c3)o2)c1	-29%	-27%
CC(C)(C)c1ccc(-c2nnc(-c3ccccc3NC(=O)c3cccc(C(F)(F)F)c3)o2)cc1	-9%	-8%
Cc1ccccc1Cn1c(=O)n(CCCCCC(=O)NCc2ccc3c(c2)OCO3)c(=O)c2sccc21	-23%	-5%
O=C(Nc1ccccc1Cl)N1CCSc2ccccc21	-10%	-12%
Cc1ccc(C)c(NC(=O)CCCn2c(C)c3cnn(-c4ccccc4)c(=O)c3c2C)c1	-28%	-19%
O=C(CN1C(=O)CC(c2ccco2)Sc2ccccc21)Nc1ccc(OC(F)(F)F)cc1 (stereo not given)	-17%	-18%
Cc1cccc(C)c1NC(=O)C(NS(=O)(=O)c1cccs1)c1ccccc1 (stereo not given)	3%	-11%
COc1cc(OC)cc(-c2nc3nc(C)c(CCC(=O)Nc4ccc(C)c(C)c4)c(C)n3n2)c1	-62%	-1%
COc1ccc(CCNc2nc3ccccc3c3nc(-c4cccc(C)c4)nn23)cc1OC	-22%	27%
CCCC(=O)OCc1cnc(C)c2oc(=O)c(C(=O)Nc3ccc(F)cc3C)cc12	-8%	-6%
Cc1ccc(C(C)C)c(OCC(=O)Nc2ccc3c(c2)nc(CCNC(=O)c2ccco2)n3C)c1	12%	-10%
CCN(C(=O)Cn1cc(S(=O)(=O)N2CCN(c3ccccc3F)CC2)c2ccccc2c1=O)c1ccc(C)c(C)c1	11%	-12%
Cc1oc(-c2ccc(Cl)cc2)nc1CSc1nc2ncccc2[nH]1	4%	-28%
CC1CCN(c2oc(-c3cccs3)nc2S(=O)(=O)c2ccc(Cl)cc2)CC1	?	-10%[11.5 µM]
CCCCNC(=O)Cn1nc(N2CCN(c3ccccc3OC)CC2)ccc1=O	5%	9%
CC(=O)Nc1ccc(S(=O)(=O)Nc2ccc3c(c2)n(C)c(=O)n3C)c(C)c1	-20%	6%
Cc1ccc(Cl)cc1NC(=O)C(NS(=O)(=O)c1ccc2c(c1)CCC(=O)N2)c1ccccc1 (stereo not given)	-1%	-15%
COc1cc(CN(CC2CCCO2)C(=O)c2ccc(F)cc2)cc(OC)c1OC (stereo not given)	1%	-3%
CC12CN3CC(c4ccccc4)(CN(C1)C3c1ccc(O)cc1)C2=O (stereo not given)	25%	8%
Cc1ccc(-n2c(=O)c3c(C)c(C)sc3n(CC(=O)c3ccc(Cl)cc3)c2=O)cc1C	0%	-21%
CC(C)Cc1ccc(S(=O)(=O)N2CCN(Cc3noc(CCC(=O)N4CCCCC4)n3)CC2)cc1	?	?
COc1ccc(NC(=O)Cn2nc(SC)c(S(=O)(=O)c3ccc(C)cc3)c2N)cc1OC	47%	-21%
CCN1C(=O)c2ccccc2S(=O)c2ccc(C(=O)N3CCN(c4ccccc4OC)CC3)cc21 (stereo not given)	-11%	-35%
COC(=O)c1ccccc1NC(=O)c1c(NC(=O)c2ccco2)sc2c1CCC(C(C)(C)C)C2 (stereo not given)	?	-29%[11.5 µM]
CCOC(=O)C1=C(CN2CCN(c3ccc(Cl)cc3)CC2)NC(=O)NC1c1ccc(F)cc1 (stereo not given)	?	?
Cc1cc(C)c(/C=C/c2onc(C)c2S(=O)(=O)N2CCC(C(=O)Nc3ccc(Cl)cc3C)CC2)c(C)c1	?	3%
CCOC(=O)c1ccc(NC(=O)CN2C(=O)C(C)(C)c3ccccc32)cc1	-10%	?
O=C(Nc1ccccc1C(F)(F)F)N1CCC2(CC1)Oc1ccccc1C(=O)N2Cc1ccccc1F	-10%	?
O=C(Nc1nc2ccc(F)cc2s1)c1nc(SCc2ccccc2F)ncc1Cl	?	-13%
CCn1cc(C(=O)NCCCOC(C)C)c(=O)c2cc(S(=O)(=O)N(C)C3CCCCC3)ccc21	?	-24%
O=C(Cn1c(-c2cccs2)cc2cc(F)ccc21)N1CCCCC1	?	-19%
COc1ccccc1C1C(C(=O)Nc2ccccc2)=C(C)Nc2nc(-c3ccccc3)nn21 (stereo not given)	-24%	-15%
CC(C)c1ccc(OCC(=O)Nc2cc(-c3nc4ncccc4o3)ccc2Cl)cc1	13µM*	-4%
O=C(NCc1ccc2c(c1)CCN2C(=O)c1ccncc1)c1cccc(F)c1	-13%	-4%
Cc1ccc(S(=O)(=O)Nc2ccc3nc(-c4ccc(F)cc4)oc3c2)cc1	41%	-3%
CCc1nc2ccc(C(=O)N3CCN(c4cccc(C)c4C)CC3)cc2nc1CC	-4%	-10%
Cc1cccn2c(=O)c3cc(C#N)c(=O)n(-c4nnc(SCc5ccccc5F)s4)c3nc12	?	-9%
CCOc1ccccc1NC(=O)c1sc2nc3n(c(=O)c2c1C)CCCCC3	-20%	3%
O=C(Cn1ccn(-c2ccc(F)c(F)c2)c(=O)c1=O)NCc1ccccc1	-19%	-3%
Cc1cccc(C)c1NC(=O)Cn1c(=O)n(Cc2ccccc2Cl)c(=O)c2cccnc21	?	-1%
CC(C)N(Cc1ccccc1)S(=O)(=O)c1ccc(N2CCCCS2(=O)=O)cc1	?	?
Cc1ccc(C)c(N2CCN(C(=O)Cn3c(-c4cccs4)cc4ccccc43)CC2)c1	?	-30%
COc1ccc(-c2nc3scc(CCNS(=O)(=O)c4c(C)cc(C)cc4C)n3n2)cc1OC	?	-7%
CCOC(=O)c1c(C)[nH]c(C)c1S(=O)(=O)N(C)CC(=O)Nc1cccc(C(F)(F)F)c1	-14%	?
Cc1ccc(S(=O)(=O)NCCc2cn3c(C)csc3n2)cc1	-3%	0%
CCN(c1ccc(OC)cc1)S(=O)(=O)c1nnc(NC(=O)c2ccccc2C)s1	?	-31%
COc1ccccc1CNC(=O)c1ccccc1NC(=O)c1nsc2ccccc12	2%	17%
CN1c2ccccc2-c2nc(SCC(=O)Nc3ccccc3)ncc2S1(=O)=O	-15%	?
COc1cccc(CNCc2cccn2-c2nnc(N3CCN(c4ccccc4)CC3)s2)c1	?	-25%
Cc1ccc(-c2ccc(=O)n(CC(=O)NCCc3ccc(Cl)cc3)n2)cc1	-13%	-28%

Continued.
SMILES	PMP22 txn	HTT promoter inh
CCN(CC)c1nn2c(=O)c(C(=O)NCCc3ccccc3)cnc2s1	-38%	7%
O=C(NCCN1CCN(c2cccc(Cl)c2)CC1)C1COc2ccccc2C1 (stereo not given)	?	-9%
COc1ccc(S(=O)(=O)NCC(c2ccc(N(C)C)cc2)N2CCc3ccccc32)cc1OC (stereo not given)	?	-5%
O=C(CSc1nnc(-c2ccc(F)cc2)o1)N1CCCc2ccccc21	21%	-21%
Cc1ccc(N(CC(=O)NCCc2ccccc2C)S(=O)(=O)N(C)C)cc1	-8%	-12%
O=C(CN1N=C(c2ccc(Cl)cc2)CCC1=O)NCCc1ccccc1	-31%	-10%
COc1ccc2nc(N3CCN(C(=O)CS(=O)(=O)c4ccc(C)cc4)CC3)sc2c1	?	?
Cc1c(C(=O)OC2CCC(C)CC2)[nH]c2c1C(=O)CC(c1ccc(F)cc1)C2 (stereo not given)	-35%	-27%
CSc1cccc(NS(=O)(=O)c2cn(C)c(C)n2)c1	-10%	-4%
CC1=C(c2ccc(C)c(C)c2)S(=O)(=O)N=C1N1CCC(C(=O)NCCc2ccc(Cl)cc2)CC1	?	?
O=S(=O)(c1ccc2c(c1)CCN2)N1CCCCCC1	?	3%
CCOc1ccc(N(C)C(=O)CS(=O)(=O)c2cccc3nsnc23)cc1	-14%	-17%
CCc1ccc(N2C(=O)CN(S(=O)(=O)CC)CC2(C)C(=O)NC2CCCCC2)cc1 (stereo not given)	-8%	-2%
CCn1c(CN2CCCCC2)nc2cc(NC(=O)COc3ccc([N+](=O)[O-])cc3)ccc21	-1%	?
CCC(CC)C(=O)Nc1ccc(-c2cn3cccnc3n2)cc1	21%	39%[activator]

Looked up above.
COc1cccc(N2CCN(C(=O)CCSCc3ccccc3F)CC2)c1 | HTT promoter inh: -25%
CCOc1ccc(N(C)C(=O)CS(=O)(=O)c2cccc3nsnc23)cc1 | HTT promoter inh: -17%

Other entries.
SMILES	PMP22 txn	HTT promoter inh
Cc1ccc(Sc2c(C)nn(C(=O)c3ccc(Cl)cc3)c2C)cc1	-14%	-6%
COc1cc(C(=O)Nc2ccc3oc(-c4ccccc4)nc3c2)cc(OC)c1OC	-70%	?
O=C1CCSc2ccc(S(=O)(=O)Nc3ccc(Cl)c(C(F)(F)F)c3)cc2N1	-20%	-17%
O=c1c2ccccc2n(Cc2c(F)cccc2Cl)c(=O)n1Cc1ccccc1	-10%	-50%
COc1cc(NC(=O)CSc2nc3nc(C)c(Cc4ccccc4)c(C)n3n2)cc(OC)c1	-18%	?
CCc1ccccc1NC(=O)Nc1cc(C(=O)NCc2ccc(OC)cc2)ccc1N1CCCC1	?	-8%
Cc1cccc(OCC(=O)Nc2cccc(C(=O)OCc3cc(=O)n4nc(C(C)C)sc4n3)c2)c1	-34%	20%
COc1ccc2c(c1)c(=O)c(S(=O)(=O)c1ccc(Cl)cc1)cn2Cc1cc(C)ccc1C	-10%	?
Cc1c(Cl)cccc1NC(=O)COCc1cc(-c2ccc3c(c2)OCO3)on1	?	-6%
O=C(Cn1cnc2c(nc3n2CCCCC3)c1=O)Nc1ccc(F)c(Cl)c1	3%	-23%
Cc1cc(C)c(NC(=O)CN2c3ccccc3S(=O)(=O)c3ccccc32)c(C)c1	-3%	-29%
Cc1ccc(-c2nc3sccn3c2Nc2ccccc2C)cc1	13%	-13%
Cc1ccc(NC(=O)CSc2nc(-c3ccc(F)cc3)cc(C(F)(F)F)c2C#N)cc1	-10%	-19%
CCN(CC)c1ccc(NC(=O)c2c(C)nn(-c3ccc(F)cc3)c2-n2cccc2)c(C)c1	?	?
CCOc1ccc(CNC(=O)C2CCCN(c3nn4cc(-c5ccc(F)cc5)nc4s3)C2)cc1 (stereo not given)	?	?

Some of the entries so far, field by field.
SMILES: Cc1cc(C)c(NC(=O)CN2c3ccccc3S(=O)(=O)c3ccccc32)c(C)c1
- PMP22 txn: -3%
- HTT promoter inh: -29%

SMILES: Cc1ccc(-c2nc3sccn3c2Nc2ccccc2C)cc1
- PMP22 txn: 13%
- HTT promoter inh: -13%

Record cards (already shown). Order of values: PMP22 txn | HTT promoter inh
`Cc1ccc(-c2nc3sccn3c2Nc2ccccc2C)cc1` is listed as 13% | -13%
`Cc1cccc(OCC(=O)Nc2cccc(C(=O)OCc3cc(=O)n4nc(C(C)C)sc4n3)c2)c1` is listed as -34% | 20%
`COc1ccc2c(c1)c(=O)c(S(=O)(=O)c1ccc(Cl)cc1)cn2Cc1cc(C)ccc1C` is listed as -10% | ?
`Cc1ccc(NC(=O)CSc2nc(-c3ccc(F)cc3)cc(C(F)(F)F)c2C#N)cc1` is listed as -10% | -19%
`Cc1cc(C)c(NC(=O)CN2c3ccccc3S(=O)(=O)c3ccccc32)c(C)c1` is listed as -3% | -29%

Further structures:
SMILES	PMP22 txn	HTT promoter inh
COc1ccc(CCNC(=O)CN(c2ccccc2OC)S(=O)(=O)c2ccc(C)cc2)cc1	?	?
COc1cccc(NC(=O)Cn2cc(C(=O)c3ccco3)c3ccccc32)c1	?	-19%
CCOC(=O)c1c(C)[nH]c(C)c1S(=O)(=O)N1CCC(C(=O)Nc2ccc(C)cn2)CC1	4%	-16%
CCc1c(C)sc2c1CCN(C(=O)Nc1ccccc1C(=O)OC)C2c1ccc(OC)cc1 (stereo not given)	-32%	-9%
COc1ccc(C(=O)Nc2ccccc2SCc2cc(=O)c3cccc(C)c3[nH]2)cc1	-1%	7%
O=C(NCCc1csc(-c2cccc(F)c2)n1)c1cccs1	?	?
Cc1cc2oc(C(=O)N(Cc3ccc(N(C)C)cc3)CC3CCCO3)c(C)c2cc1Cl (stereo not given)	-33%	-5%
CCOC(=O)c1noc2ncn(CC(=O)Nc3cccc(Cl)c3)c(=O)c12	7%	1%
CCN(C(=O)CSc1nc2ccccc2n1CC(=O)N1CCCC(C)C1)c1ccccc1 (stereo not given)	-9%	-22%
COc1ccc(OCCCn2c(=O)oc3ccc(C)cc32)cc1	4%	-15%
CCc1ccc(-n2c(=O)c3c4c(sc3n(Cc3ccccc3C#N)c2=O)CCC4)cc1	-38%	-5%
CC(C)CC(=O)Nc1cccc(-c2nc3ccccc3[nH]2)c1	-14%	44%[activator]

Assay outcomes deposited in PubChem BioAssay by National Center for Advancing Translational Sciences (NCATS).
